HCMV NEC inh – inhibitors of HCMV UL50-UL53 nuclear egress complex interaction; HTRF UL50-UL53 interaction, normalized percent inhibition; 190,000 compounds, 0.15% hits; inhibition, % (no concentration beside the values);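 active = both replicates at 50% or more, plus weaker picks with an unusually low signal ratio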;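 note: stock transfer was 100 nL into about 20 µL; 0% = negative control wells and 100% = wells with untagged competitor protein; inactives centre near -12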
Sa growth 42C – blocks Staphylococcus aureus growth; S. aureus RN4220 growth, OD600, 20 h, 42 °C; active compounds read low; relative growth, % (test concentration not listed); 170,000 compounds, 0.53% hits;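 active = growth at 42 °C up to 50% and 20 or more points under that at 30 °C, or under 10% at both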;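 note: 300 nL library stock went into each well; scaled to the means of positive and negative controls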
GIV-Gai inh – GIV-Galpha-i interaction inhibition; P08753; Galpha-i3/FITC-GIV peptide fluorescence polarization, 90 min; active compounds read low; scaled: aluminum fluoride 0%, vehicle 100%; percent of control (FP), % (test concentration not listed); 210,000 compounds, 0.42% hits; AID 1224905;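 active = replicate mean at 85% of control or lower, very high polarization wells dropped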;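 note: lower values mean more displacement of the GIV peptide from Galpha-i3; wells of about 15 µL received 100 nL stock; the first replicate is given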
Target sequence (P08753 whole entry, looked up): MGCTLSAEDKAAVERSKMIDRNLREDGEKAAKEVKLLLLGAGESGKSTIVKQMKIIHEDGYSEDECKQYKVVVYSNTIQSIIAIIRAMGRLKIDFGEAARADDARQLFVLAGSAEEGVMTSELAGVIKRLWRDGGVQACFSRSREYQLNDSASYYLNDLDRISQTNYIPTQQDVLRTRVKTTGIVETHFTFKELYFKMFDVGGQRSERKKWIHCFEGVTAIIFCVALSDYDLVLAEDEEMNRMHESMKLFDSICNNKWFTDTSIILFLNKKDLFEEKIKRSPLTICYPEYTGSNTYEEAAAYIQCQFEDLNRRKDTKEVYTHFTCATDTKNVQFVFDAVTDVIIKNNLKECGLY
Sa growth 42C second temp – further read-out of Sa growth 42C, marked with its call; relative growth, %; measured here: growth at 30 °C;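 optical density after 20 h as mean of two plates; 100% = untreated growth and lower means inhibition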
An asterisk follows results filed as active; x = no result given; & = joins results of further samples.

SMILES	HCMV NEC inh	Sa growth 42C	Sa growth 42C second temp	GIV-Gai inh
Fc1ccccc1Nc1ncnc2c1nc1n2CCCCC1	x	100	69	101
CCOC(=O)c1cc(C#N)c(SCC(=O)c2cc3ccccc3oc2=O)[nH]c1=O	-3	52	24	x
COc1cccc(-n2c(=O)c3c(C)c(C)sc3n(CC(=O)NCCc3ccc(OC)c(OC)c3)c2=O)c1	4	100	89	103
Cc1cc(N2CCN(C)CC2)nc2ccc(NC(=O)NCc3ccc(F)cc3)cc12	-13	105	82	106
C/C(=N\NS(C)(=O)=O)c1ccc(Br)cc1	-14	108	105	102
COc1ccc(C(C)(C)C)cc1NC(=O)COC(=O)CC1CCCC1	15	104	102	x
Cc1cc(=S)cc(C)n1CCCn1ccnc1	3	103	100	x
CCNCc1ccc(-c2cc(Cl)ccc2Cl)o1	2	x	x	107
c1ccc(CCNc2nc3ccccc3n3cnnc23)cc1	x	72	93	106
CC1CCCCN1C(=O)Cn1c(=O)n(CCCS(=O)(=O)C2CCCCC2)c(=O)c2ccccc21 (stereo not given)	-4	121	87	105
CC1CCCN(C(=O)c2cn(C)cc3c(=O)n(-c4ccccc4)nc2-3)C1 (stereo not given)	-58	x	x	99
O=C(O)CC(=O)Oc1ccc(Cl)cc1	9	x	x	101
O=C(C/C(=C1/Cc2ccccc2C1=O)c1ccccc1)c1ccccc1	-13	123	86	106
CCCCN(C)c1ccc(C(=O)OC)cc1NC(=S)Nc1cccc(C)c1	x	104	86	103
COC(=O)c1ccc(C2c3c(oc4cc(C)c(C)cc4c3=O)C(=O)N2c2ccccn2)cc1 (stereo not given)	-6	89	88	102
O=C(Nc1cc(C(F)(F)F)ccc1Cl)c1cc(-c2ccc3c(c2)OCCO3)on1	4	98	93	94
COc1cc(NC(=O)CCN2CCOCC2)cc(OC)c1	1	66	81	110
CCn1c(C(=O)N2CCC(C(=O)N3CCCCC3)CC2)cc2sccc21	x	105	86	106
Cc1cc(N2CCN(C)CC2)n2nc(-c3cccnc3)nc2n1	-6	x	x	102
Clc1cccc(Nc2nnc(-c3ccc(Br)cc3)o2)c1	-10	77	91	x
COc1ccc(C2=N/C(=C\c3coc4c(Cl)cc(Cl)cc4c3=O)C(=O)O2)cc1[N+](=O)[O-]	-8	x	x	105
CCCCn1c(CNC(=O)c2ccc(OC)cc2)nnc1SCC(=O)Nc1ccccc1	-2	96	93	100
CCOc1ccc(CCNC(=O)CN2C(=O)COc3ccc(S(=O)(=O)N4CCCCCC4)cc32)cc1	-36	111	81	98
Cc1cc(-c2ccccc2)n2nc(-c3cccc(Br)c3)cc2n1	-12	97	78	109
O=C1CC(c2ccccc2)=Nc2ccccc2N1Cc1ccc(F)cc1Cl	2	x	x	108
CCOC(=O)c1[nH]c2sc(C)c(C)c2c1NC(C)=O	-2	x	x	105
CCC(=O)N(c1nnc(SCC(=O)N2CCC(c3ccccc3)=N2)s1)C1CC1	-46	98	82	x
O=C(NCCCN1CCCC1=O)c1ccc(Cn2c(SCc3ccccc3)nc3ccncc32)cc1	x	81	83	103
Cc1ccc(-n2ncc3c(NNC(=O)c4ccco4)ncnc32)c(C)c1	-22	94	84	100
COc1cccc(NC(=O)c2ccccc2S(C)(=O)=O)c1	-15	88	97	x
Nc1ccc(-c2nc3ccc(-c4nc5ccc(N)cc5[nH]4)cc3[nH]2)cc1	10&48	x	x	106
Cc1ccc(N2CCN(CC(=O)Nc3c(C(=O)C4CC4)oc4ccccc34)CC2)cc1	0&15	95	92	102&98
CCCN(c1ccc(C)cc1)c1nc(=O)c2cccnc2s1	3	91	101	106
CN(C)S(=O)(=O)c1ccc2c(c1)C(=C(C#N)C#N)c1cc(S(=O)(=O)N(C)C)ccc1-2	-10	89	110	99
N#CCC(=O)Nc1cccc(Cl)c1Cl	-21	112	91	x
CCN(C(=O)CCn1cnc2onc(-c3ccc(F)cc3)c2c1=O)c1ccc(OC)cc1	x	126	98	110

Part of the list above in order of molar mass, low to high:
SMILES	HCMV NEC inh	Sa growth 42C	Sa growth 42C second temp	GIV-Gai inh
COc1cccc(NC(=O)c2ccccc2S(C)(=O)=O)c1	-15	88	97	x
CCCN(c1ccc(C)cc1)c1nc(=O)c2cccnc2s1	3	91	101	106
O=C1CC(c2ccccc2)=Nc2ccccc2N1Cc1ccc(F)cc1Cl	2	x	x	108
Cc1ccc(N2CCN(CC(=O)Nc3c(C(=O)C4CC4)oc4ccccc34)CC2)cc1	0&15	95	92	102&98

Going on with the list.
SMILES	HCMV NEC inh	Sa growth 42C	Sa growth 42C second temp	GIV-Gai inh
CCCCn1c(N)c(N2CCOCC2)c(=O)n(CC(=O)NCCc2ccccc2)c1=O	-21	98	96	x
CCCN(CCc1ccccc1)C1CCc2c(O)cccc2C1 (stereo not given)	-17	x	x	108
CCN(Cc1ccccc1)C1CCN(Cc2ccc(SC)cc2)CC1	-12	95	81	103
NC(=O)COC(=O)c1ccc2c(c1)C(=O)N(Cc1ccco1)C2=O	-53	88	96	x
Cc1c(NC(=S)NCCCN2CCOCC2)c(=O)n(-c2ccccc2)n1C	-29	95	88	99
CCCN1C(=O)S/C(=C\C(=O)O)C1=O	14	95	74	107
COc1ccc(S(=O)(=O)N2CCC(C(=O)Nc3ccc(Oc4ccccc4)cc3)CC2)cc1OC	-31	91	87	106
CC1=C(C(=O)Nc2ccccc2)C(c2ccc(O)cc2)n2nnnc2N1 (stereo not given)	-7	x	x	108
COc1ccc(C2C(C(=O)Nc3ccccn3)c3ccccc3C(=O)N2C2CCCCC2)cc1 (stereo not given)	2	92	91	95
CCCCCOc1ccc(C2N=C(N)Nc3nc4ccccc4n32)cc1 (stereo not given)	-14	95	97	x
c1coc([C@H]2Nc3ccccc3[C@H]3OCC[C@@H]23)c1	x	104	87	100
Cc1cccc(-c2nc(SCC(=O)Nc3cccc(C(F)(F)F)c3)n3[nH]c(=O)cc3n2)c1	x	107	81	101
Cn1c(CCc2ccc(NC(=O)c3n[nH]c4c3CCCC4)cc2)nc2ccccc21	-20	x	x	104
CC(=O)Nc1ccc(N2C(=O)CSC2c2ccc(Br)cc2)cc1 (stereo not given)	-8	x	x	100
COc1ccc(Br)c(C(=O)Nn2c(-c3ccc(F)cc3)nc3ccccc3c2=O)c1	-17	x	x	103
O=C(O)COc1ccc(Br)cc1	-32	115	85	x
CC1CN(C(=O)c2ccccc2)OC(c2cccc(O)c2)O1 (stereo not given)	-23	102	90	x
O=S(=O)(Cc1ccc(Cl)cc1)c1ccc(NCC2CCCO2)nn1 (stereo not given)	-8	x	x	95
CCS(=O)(=O)CCSc1nc2c(cc1C#N)CCCC2	-17	96	80	101
N#CC1=C(SCC(=O)Nc2ccc(Br)cc2)NC(=O)CC1c1ccccc1Cl (stereo not given)	-11	x	x	102
CC(C)c1ccc(NC(=O)C2CC(=O)NC(N3CCN(c4ccccn4)CC3)=N2)cc1 (stereo not given)	-2	97	80	99
CCc1ccc(CC2C(=O)Nc3ccc(C)cc32)cc1 (stereo not given)	-17	x	x	104
CC1=NN(c2ccc(Br)cc2)C(=O)/C1=C/c1ccc(-c2ccc3c(c2)C(=O)OC3)o1	-3	x	x	99
CC(=O)Nc1cc(C(=O)N2CCN(c3cc(Cl)ccc3C)CC2)ccc1Sc1ccc(F)cc1	x	117	91	99

Overlap with the part before: 4 compounds; new compounds follow.
SMILES	HCMV NEC inh	Sa growth 42C	Sa growth 42C second temp	GIV-Gai inh
CC(C)c1ccc(NC(=O)C2CC(=O)NC(N3CCN(c4ccccn4)CC3)=N2)cc1 (stereo not given)	-2	97	80	99
CCc1ccc(CC2C(=O)Nc3ccc(C)cc32)cc1 (stereo not given)	-17	x	x	104
CC1=NN(c2ccc(Br)cc2)C(=O)/C1=C/c1ccc(-c2ccc3c(c2)C(=O)OC3)o1	-3	x	x	99
CC(=O)Nc1cc(C(=O)N2CCN(c3cc(Cl)ccc3C)CC2)ccc1Sc1ccc(F)cc1	x	117	91	99
Cc1c(C(=O)O)sc2nc3n(c(=O)c12)CCC3	x	95	93	102
CC(=O)Nc1c(C(=O)N2CCCCCC2)cnn1-c1ccccc1	-6	98	74	94
CCS(=O)(=O)c1ccc(O)c(Nc2cc(-c3ccccc3)ncn2)c1	-8	x	x	99
O=C(CSc1ccc(C(F)(F)F)cn1)Nc1cccc2nsnc12	-1	106	90	101
Cc1ccc2c(c1)N(C(=O)n1ccnc1)CC(C)O2 (stereo not given)	x	107	94	103
O=C(CN1CCN(S(=O)(=O)/C=C/c2ccccc2)CC1)NC1CCCc2ccccc21 (stereo not given)	-17	102	93	x
Cc1ccccc1Nc1nc(N)nc(COC(=O)COc2ccc(C#N)cc2)n1	-9	97	94	x
Clc1nc2ccccc2c(N2CCCCC2)c1CNCc1ccco1	13	101	84	103
O=C(CSC1=NCCN1)NC1CCCCCC1	10	99	101	x
CCOC(=O)c1oc2cc3sc(N4CCCCC4)nc3cc2c1C	x	126	86	108
Cc1ccc(S(=O)(=O)CCC(=O)OCc2cccc(S(=O)(=O)N3CCOCC3)c2)cc1	-10	93	98	x
CCc1ccc2[nH]c(C(=O)NCCN3CCOCC3)cc2c1	-5	119	90	98
COc1cccc(NC(=O)N(Cc2ccc(C)cc2)Cc2cccn2-c2nnc(N3CCCC3=O)s2)c1	-9	117	95	101
COc1ccccc1C(=O)NC(=O)CSc1cccc[n+]1[O-]	16	99	99	x
O=c1c2c3c(sc2nc(NCCO)n1-c1ccccc1)CCCC3	5	109	89	108
CCN(CC)c1ccc(NC(=O)C2(c3ccccc3)CC2)cc1	-7	93	91	x
Cc1cc(C(=O)OCc2cc(Cl)cc3c2OCOC3)c2ccccc2n1	-9	121	92	x
CCOc1ccc(/C=C(\C#N)c2nc3ccccc3c(=O)[nH]2)cc1OC	-4	96	93	106
CN(C1CCCCC1)S(=O)(=O)c1ccc(S(=O)(=O)N(Cc2cccs2)CC2CCCO2)cc1 (stereo not given)	-22	104	90	103
CC1Cn2c(nnc2-c2ccccc2O)S1 (stereo not given)	-5	76	89	108
CCOC(=O)c1cccnc1SC(CC)C(=O)NCc1ccco1 (stereo not given)	-22	76	52	108
CCOC(=O)C1=C(N)OC2=C(C(=O)CC(c3ccccc3)C2)C1c1ccc(Br)cc1 (stereo not given)	9	x	x	104
CCOC(=O)c1cc(-c2ccccc2)n(CC(=O)NCc2ccc(C)cc2)c1C	x	110	71	95
CNC(=O)COc1coc(CN2c3ccccc3CC2C)cc1=O (stereo not given)	-11	113	93	103

Compound profiles (already shown). Values in the order: HCMV NEC inh	Sa growth 42C	Sa growth 42C second temp	GIV-Gai inh
CCOc1ccc(/C=C(\C#N)c2nc3ccccc3c(=O)[nH]2)cc1OC reads -4	96	93	106
CN(C1CCCCC1)S(=O)(=O)c1ccc(S(=O)(=O)N(Cc2cccs2)CC2CCCO2)cc1 (stereo not given) reads -22	104	90	103
O=c1c2c3c(sc2nc(NCCO)n1-c1ccccc1)CCCC3 reads 5	109	89	108

Continuation.
SMILES	HCMV NEC inh	Sa growth 42C	Sa growth 42C second temp	GIV-Gai inh
N#CSCC(=O)C12CC3CC(CC(C3)C1)C2	x	57	18	100
CN1C(=O)c2ccccc2Sc2ccc(NC(=O)NCc3ccccc3Br)cc21	3	103	97	100
Clc1ccc(Sc2ncccn2)cc1	6	105	96	x
CCC(Sc1nc2ccccc2c2nc3ccccc3n12)C(=O)N1CCOCC1 (stereo not given)	x	89	93	105
Cc1ccc(C)n1-c1nnc(N2CCCC(C(=O)NCc3cccc(F)c3)C2)s1 (stereo not given)	-10	107	92	100
Cc1cc(C(=O)Cn2cnc3sccc3c2=O)c(C)n1CC1COc2ccccc2O1 (stereo not given)	6	119	95	x
O=C(Cc1ccccc1F)Nc1cc2c(cc1Br)OCCO2	-6	132	104	x
O=C(C1CC1)N1CCc2cc(Br)c(S(=O)(=O)N3CCC(Cc4ccccc4)CC3)cc21	14	x	x	105
COC(=O)CC1=Nc2ccccc2NC(=O)C1	x	104	91	104
CCN(CC)S(=O)(=O)c1ccc2c(c1)N(CC(=O)N1CCN(c3cccc(C(F)(F)F)c3)CC1)C(=O)CO2	x	119	93	101
COc1cccc(CC(C#N)c2c(C#N)c(N)nc(N3CCOCC3)c2C#N)c1 (stereo not given)	-2	101	93	x
CCCN(CC(=O)N1CCc2ccccc21)S(=O)(=O)c1cccc(C(F)(F)F)c1	-4	100	96	x

Bioassay records deposited in PubChem by ICCB-Longwood Screening Facility, Harvard Medical School.
